Assay outcomes as filed in PubChem BioAssay.
HCMV NEC inh: disrupts HCMV UL50-UL53 complex binding; inhibition, % (test concentration not listed); hit rate 0.15% among 190,000; HTRF UL50-UL53 interaction, normalized percent inhibition; AID 1918969;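 active = both replicates at 50% or more, plus weaker picks with an unusually low signal ratio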;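 note: stock transfer was 100 nL into about 20 µL; 0% = negative control wells and 100% = wells with untagged competitor protein; inactives centre near -12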
GIV-Gai inh: blocks GIV peptide binding to rat Galpha-i3; P08753; Galpha-i3/FITC-GIV peptide fluorescence polarization, 90 min; hits give low values; scaled: aluminum fluoride 0%, vehicle 100%; percent of control (FP), % (no concentration beside the values); hit rate 0.42% among 210,000; AID 1224905;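 active = replicate mean at 85% of control or lower, very high polarization wells dropped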;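 note: wells of about 15 µL received 100 nL stock; the first replicate is given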
Target sequence (P08753 whole entry, looked up): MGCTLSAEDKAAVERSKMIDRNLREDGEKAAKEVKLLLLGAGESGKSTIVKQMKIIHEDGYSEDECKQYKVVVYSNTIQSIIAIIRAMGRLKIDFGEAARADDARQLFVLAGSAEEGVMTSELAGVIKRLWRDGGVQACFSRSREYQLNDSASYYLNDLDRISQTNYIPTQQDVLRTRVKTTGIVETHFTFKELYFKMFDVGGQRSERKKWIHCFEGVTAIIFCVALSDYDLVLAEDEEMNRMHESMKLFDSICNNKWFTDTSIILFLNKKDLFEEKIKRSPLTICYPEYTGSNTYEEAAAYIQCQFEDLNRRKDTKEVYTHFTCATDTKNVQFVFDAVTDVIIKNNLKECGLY
Sa growth inh: blocks Staphylococcus aureus growth | S. aureus RN4220 growth, OD600, 20 h, 42 °C; hits give low values | hit rate 0.53% among 170,000 | relative growth, % (no concentration beside the values);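 active = growth at 42 °C up to 50% and 20 or more points under that at 30 °C, or under 10% at both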;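 note: 300 nL library stock went into each well; scaled to the means of positive and negative controls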
Sa growth inh second temp: also measured in Sa growth inh; calls as there; relative growth, %; measured here: growth at 30 °C;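 optical density after 20 h as mean of two plates; 100% = untreated growth and lower means inhibition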
Active calls of the source: *; · = not tested or not shown; & = joins results of further samples.

SMILES	HCMV NEC inh	GIV-Gai inh	Sa growth inh	Sa growth inh second temp
COCCN(Cc1ccco1)C(=O)Cn1nc(Cc2cccnc2)c2ccccc2c1=O	-22	104	88	85
O=c1[nH]c(=S)[nH]c2c1CN(Cc1ccc(F)cc1)CC2	16	97	·	·
CS(=O)(=O)Nc1ccccc1Cc1ccccc1	-2	107	101	99
O=C1CC(c2ccccc2)CC(O)=C1C=NCc1ccco1 (stereo not given)	·	110	80	87
COc1ccccc1-c1ncnn1C1=C(C#N)C2CCCCCC2S1 (stereo not given)	-34	104	95	81
CCN(CC)c1ccc(C=C2C(=O)c3ccccc3C2=O)c(O)c1	-58	-64*	88	99
CCOc1ccc(-n2c(SCC(=O)NC3CCCC3)nnc2-c2ccoc2C)cc1	-10	99	105	72
CN=c1scc(-c2ccc(C)c(C)c2)n1/N=C/c1ccc[nH]1	-25	·	82	85
O=C(NCc1cccs1)c1ccc(Cl)cc1	-11	106	105	92
COc1cc(C2c3c(-c4ccccc4O)n[nH]c3C(=O)N2CCO)ccc1OCc1ccccc1 (stereo not given)	-11	100	103	90
Cc1cc(C)c2c3c(oc2n1)C(=O)N(c1ccccc1)CC(=O)N3	26	96	87	88
Cc1cc(C)c(NC(=O)CN2C(=O)c3cccnc3Oc3ccc(C)cc32)c(C)c1	·	107	129	75
C/C(=N\N1CCN(C)CC1)c1ccc(OC(F)F)cc1	-21	·	85	92
O=C(c1cc(-c2ccccc2)c(N2CCOCC2)s1)N1CCC2(CC1)OCCO2	-1	101	96	96
Cc1ccc(NC(=O)CN(C)C(=O)c2ccccn2)cc1	13	·	97	95
Nc1c2c(nn1-c1ccccc1)Oc1ccc(Cl)cc1C2	-27	104	95	94
CN(C)C(=O)CNC(=O)c1ccc(S(=O)(=O)N(C)C)cc1	-18	·	107	91
CCCCOc1ccccc1C1C(C(=O)OCCOC)=C(C)NC2=C1C(=O)CC(c1ccc(OC)c(OC)c1)C2 (stereo not given)	-10	99	·	·
O=C1CC(N(O)c2ccccc2)C(=O)N1c1ccc(N2CCOCC2)cc1 (stereo not given)	·	110	89	85
C/S(=N/C(=O)Nc1ccc(Cl)cc1)c1ccc(OC(=O)c2ccc(Cl)cc2)cc1 (stereo not given)	-35	100	99	84
CCOC(=O)c1sc(N)c(C#N)c1COC(=O)c1ccc(S(=O)(=O)NCc2ccco2)cc1	-41	·	89	85
CCCCc1cc(C)c2[nH]c(=O)cc(C)c2c1	-8	101	117	90
CCOc1ccc(-n2c(Cc3ccccc3)nnc2SCc2nc(-c3ccccc3OC)no2)cc1	-32	97	88	74
COc1ccc(S(=O)(=O)N2CCN=C2N2CCN(c3ccccc3F)CC2)cc1	-13	102	·	·

Whole records as entered above. Screens in order: HCMV NEC inh | GIV-Gai inh | Sa growth inh | Sa growth inh second temp
`C/C(=N\N1CCN(C)CC1)c1ccc(OC(F)F)cc1` is listed as -21 | · | 85 | 92
`CCOC(=O)c1sc(N)c(C#N)c1COC(=O)c1ccc(S(=O)(=O)NCc2ccco2)cc1` is listed as -41 | · | 89 | 85

Next entries.
SMILES	HCMV NEC inh	GIV-Gai inh	Sa growth inh	Sa growth inh second temp
COc1cccc(CNC(=O)Cn2nc3c(cc2=O)CCCC3)c1OC	·	98	94	84
CN(C)c1ccc(C2NN(Cc3ccccc3)C3C(=O)N(C4CCCCC4)C(=O)C23)cc1 (stereo not given)	-11	106	125	108
CCCN1C(=O)/C(=C/C=C2/Sc3ccccc3N2CCO)SC1=S	-12	·	85	85
COc1ccc(NC(=O)c2ccc(CN3C(=O)CCn4nccc43)cc2)cc1	-16	102	·	·
O=C(Nc1cc2ccccc2s1)NC1CCN(Cc2ccccc2)CC1	16	100	107	96
S=c1[nH]nc(-c2cccs2)n1C1CCc2ccccc21 (stereo not given)	-2	96	70	51
O=C1Nc2ccccc2S/C1=C\C(=O)N1CCC2(CC1)OCCO2	-40	109	100	108
Cc1ncsc1C(=O)OC(C#N)c1cccc(Oc2ccccc2)c1 (stereo not given)	8	·	108	96
CCn1c(SCCOc2ccccc2)nnc1-c1ccco1	-37	·	90	90
CCC1=C(c2ccc(C)cc2)S(=O)(=O)N=C1N1CCC(C(=O)Nc2ccccc2F)CC1	·	105	100	75
O=C(O)COc1ccc2occ(C(=O)c3ccccc3)c2c1	-26	100	102	85
CC(NCc1cccs1)c1ccccc1 (stereo not given)	-6	107	97	77
O=C(NCCC1=CCCCC1)c1cc2occc2c(Nc2ccc(Cl)cc2)n1	-11	109	·	·
O=C(Oc1cccnc1)c1c(F)cccc1F	-21	99	81	68
CCCCC(=O)Nc1ccc(C(=O)Nc2cccnc2)cc1	2	99	99	98
CN=C(Nc1ccccc1OC)c1ccccc1	-8	·	88	88
Cc1cn2c(=O)c(C(=O)N3CCC(CCCC4CCN(C(=O)c5cnc6sc(C)cn6c5=O)CC4)CC3)cnc2s1	11	110	91	87
Cc1cccc(NC(=O)NCCCN2CCN(c3ccccc3)CC2)c1	1	104	·	·
O=S(=O)(Nc1ccc(-c2ccc(N3CCCCC3)nn2)cc1)c1ccc(F)cc1F	-38	107	·	·
Clc1ccccc1Cn1c(C2CCCO2)nc2ccccc21 (stereo not given)	·	99	113	90
COc1ccc(/C=C2\C(=O)N(c3ccccc3)N=C2C)cc1	43*	109	87	73
CN(c1cccc(NC(=O)CN(c2ccccc2)S(C)(=O)=O)c1)S(C)(=O)=O	5	·	96	90
COc1ccc(CCCc2nnc(SC(C)C(=O)Nc3nccs3)n2C)cc1 (stereo not given)	-33	102	88	82
O=C1/C(=C/c2ccccc2)Sc2ccccc21	-13	109	107	67
CC1=CCC2C(=O)N(c3ccc(S(N)(=O)=O)cc3)C(=O)C2C1 (stereo not given)	-28	100	84	83
CC(C)c1nn2c(=O)cc(COC(=O)c3ccccc3NC(=O)c3ccco3)nc2s1	-22	99	99	89
CC1C(=O)NN=C1C(=O)N/N=C\c1ccc(O)cc1O (stereo not given)	-20	112	83	84
CC1CN(c2ccc(N)cc2)CC(C)O1 (stereo not given)	-12	103	90	92
CCOc1ccc(-c2ccc(SCc3nc(-c4cc(OC)cc(OC)c4)no3)nn2)cc1	-12	102	·	·
C=C(C)C1CCC(C)OC1c1ccc2c(c1)OCO2 (stereo not given)	-10	98	97	87
CCOC(=O)C1CCN(C(=O)Cn2ncc3c4ccccc4n(Cc4ccccc4F)c3c2=O)CC1	-17	101	94	82
CC(C)CC(=O)N1c2ccccc2NC2=C(C(=O)CC(C)(C)C2)C1c1cccnc1 (stereo not given)	-1	·	115	92
Cc1ccc(CN2C(=O)CN(C3CCCCCC3)C(=O)C2c2ccc(F)cc2)cc1 (stereo not given)	·	107	104	100
COc1ccc(CNC(=O)Cc2csc3ccccc23)cc1OC	-14	107	118	89
O=C1Cc2cc(NS(=O)(=O)c3ccccc3)cc3c2N1CCC3	-6	104	116	90
COc1ccccc1CNC(=O)CSc1ncc2c(n1)-c1ccccc1N(Cc1ccc(C)cc1)S2(=O)=O	-33	102	102	93
COc1ccc(NC(=O)CCS(=O)(=O)c2cc(Br)cc3c2N(C(C)=O)CC3)c(OC)c1	·	106	94	97
CCn1cc(C(=O)CSc2nnc(CN(c3ccc(F)cc3)S(C)(=O)=O)n2C)c2ccccc21	-21	106	·	·
CCN(Cc1cc(=O)n2ccsc2n1)c1ccc(OC)cc1	-17	103	·	·
COc1cc2[nH]c(=S)n(N(C(C)=O)C(C)=O)c(=O)c2cc1OC	-8	104	106	62
COCCn1c(C)cc(C(=O)CSc2nnc3ccccn23)c1C	·	105	85	73
COC(=O)c1cccc(Nc2c(-c3ccc(O)c(OC)c3)nc3nc[nH]n23)c1	·	98	105	93
COc1ccc(C2=C(N)C(=O)NC2=O)cc1OC	-114	·	120	75
O=C(O)C1CCN(C(=O)c2cc(F)cc3c2OCOC3)CC1	-5	105	114	82
CCc1noc(C)c1C(=O)OCC(=O)Nc1sc(C)c(C)c1C(=O)OC	3	·	112	95
C/C(=N\NC(=O)c1cc(Br)ccc1O)c1ccccn1	-19	102	3.1*	1.3*
Cc1ccc(-c2nc(C#N)c(NCCCN(C)C)o2)cc1	·	98	113	90
O=C(/C=C/c1cccs1)OCC(=O)N1CCN(C(=O)c2ccco2)CC1	-54	·	100	93
COc1cccc(-n2ccnc(SCC(=O)Nc3ccccc3OC)c2=O)c1	-55	101	·	·
CCc1cccc2c(C3=Nn4cnnc4SC3c3ccccc3)c[nH]c12 (stereo not given)	-40	·	75	62
CC(=O)N1CCc2cc(Br)cc(S(=O)(=O)CC(=O)Nc3ccccc3C)c21	0	103	93	81
NC(=O)c1oc2ccccc2c1NC(=O)CSc1ccc(F)cc1	-22	102	105	79
COc1ccc(NC(=O)c2c3c(nc4ccccc24)CCCC3)cc1	-14	·	98	82
Cc1cc(-c2cc(S(=O)(=O)N3CCN(C4CCCCC4)CC3)c(C)s2)on1	-23	101	·	·
CNc1c(NC(=O)Nc2cc(C)cc(C)c2)c(=O)oc2ccccc12	-29	100	87	89
CCOc1ccc2cc(-c3ccccn3)c(=N)oc2c1	-5	·	80	96
COc1ccc(-c2nc3nc[nH]n3c2Nc2ccc(C(C)C)cc2)cc1	-6	105	·	·
Cn1cc(CN2CCN(c3ccccc3)CC2)c2ccccc21	9	102	89	87
Cc1ccc2c(Sc3ccc(Cl)cc3)c(C(=O)NC(C)C)[nH]c2c1	-16	57*	·	·
CC(C)N(Cc1ccccc1)S(=O)(=O)c1ccc(-c2ccccn2)s1	-14	106	90	83

Reprinted at random: four records from the list
SMILES	HCMV NEC inh	GIV-Gai inh	Sa growth inh	Sa growth inh second temp
CC(C)N(Cc1ccccc1)S(=O)(=O)c1ccc(-c2ccccn2)s1	-14	106	90	83
CCc1noc(C)c1C(=O)OCC(=O)Nc1sc(C)c(C)c1C(=O)OC	3	·	112	95
Cc1ncsc1C(=O)OC(C#N)c1cccc(Oc2ccccc2)c1 (stereo not given)	8	·	108	96
CCn1cc(C(=O)CSc2nnc(CN(c3ccc(F)cc3)S(C)(=O)=O)n2C)c2ccccc21	-21	106	·	·

Three compounds already listed, sorted by molecular weight, descending.
SMILES	HCMV NEC inh	GIV-Gai inh	Sa growth inh	Sa growth inh second temp
CCn1cc(C(=O)CSc2nnc(CN(c3ccc(F)cc3)S(C)(=O)=O)n2C)c2ccccc21	-21	106	·	·
COc1ccc(/C=C2\C(=O)N(c3ccccc3)N=C2C)cc1	43*	109	87	73
COc1ccc(C2=C(N)C(=O)NC2=O)cc1OC	-114	·	120	75

Next section
SMILES	HCMV NEC inh	GIV-Gai inh	Sa growth inh	Sa growth inh second temp
CCOC(=O)c1cnc(N2CCCCC2)nc1C1CCN(C(=O)OC(C)(C)C)CC1	-12	104	78	85
O=C(COc1ccc2oc(-c3ccco3)cc(=O)c2c1)NC1CCCCC1	-70	113	136	79
Cc1cccc(CCNC(=O)Cn2ncc3c(=O)oc4ccccc4c32)c1	-9	107	110	77
COCCNC(=O)c1c(NC(=O)Cc2coc3cc(C)ccc23)sc2c1CCCC2	-8	106	115	90
O=S(=O)(Nc1cccc(C(F)(F)F)c1)c1ccccc1	-10	·	105	102
Cc1nc(C)c(C(=O)O)c(-c2cccs2)c1C(=O)O	0	97	110	101
O=C(Nc1cccc2cccnc12)c1cccc2ccccc12	-5	107	106	92
CCN(CC)c1ccc(C2C(C#N)=C(N)N(c3ccccc3Cl)C3=C2C(=O)CCC3)cc1 (stereo not given)	-16	107	93	71
Cc1ccc(S(=O)(=O)N(Cc2ccccc2C)c2nc3nc(C)c(Cl)c(C)n3n2)cc1	-13	102	·	·
Nc1ccc(-c2nc3cccnc3s2)cc1	-76	103	81	85
Cc1cccc(-c2noc(-c3ccc(N4CCN(C)CC4)c([N+](=O)[O-])c3)n2)c1	-36	104	115	93
CC(C)Nc1nc(NC(N)=O)nc(NC(C)C)n1	6	108	83	77
CNC(=O)c1ccccc1S(=O)c1cccc2cccc(CO)c12 (stereo not given)	-6	100	100	100
COc1ccc(CN2CCN(Cc3ccccc3F)CC2)c(OC)c1	-14	102	·	·
CC1CCN(S(=O)(=O)c2ccc3nc(-c4cccnc4)cc(C(=O)NCCCOC(C)C)c3c2)CC1	·	110	119	88
CCN(CC)S(=O)(=O)c1ccc2nc(CSc3n[nH]c(N)n3)[nH]c2c1	-10	·	94	88
c1ccc(-c2nnc(-c3nc(NCCCN4CCC(N5CCCCC5)CC4)c4ccccc4n3)o2)cc1	-7	96	·	·
COc1cccc(-c2nnc(SCC(=O)N3CCCC(C)C3)o2)c1 (stereo not given)	·	97	91	79
N#Cc1ccccc1NC(=O)c1cc2c(=O)n3ccccc3nc2s1	-35	99	104	95
CCOC(=O)c1c(-c2cccs2)csc1NC(=O)CN1CC(C)OC(C)C1 (stereo not given)	-13	·	95	89
COc1ccc(OCC(=O)NC2CC(=O)N(c3ccc4c(c3)OCCO4)C2)cc1 (stereo not given)	·	95&99	97	89
O=C(O)CN1C(=O)/C(=C\c2cccc([N+](=O)[O-])c2O)SC1=S	-105	116	·	·
O=C(Nc1cccc(Br)c1)Nc1nc2c(s1)CCCCCC2	·	101	37*	59*

4 of the compounds above, with bars between the fields.
SMILES | HCMV NEC inh | GIV-Gai inh | Sa growth inh | Sa growth inh second temp
O=C(O)CN1C(=O)/C(=C\c2cccc([N+](=O)[O-])c2O)SC1=S | -105 | 116 | · | ·
O=C(Nc1cccc(Br)c1)Nc1nc2c(s1)CCCCCC2 | · | 101 | 37* | 59*
COc1ccc(OCC(=O)NC2CC(=O)N(c3ccc4c(c3)OCCO4)C2)cc1 (stereo not given) | · | 95&99 | 97 | 89
CCN(CC)S(=O)(=O)c1ccc2nc(CSc3n[nH]c(N)n3)[nH]c2c1 | -10 | · | 94 | 88

Not a hit list. Share with any hit: about 0.83%.
